Vif TR-FRET: HIV-1 Vif–A3G interaction blockers – biochemical, TR-FRET, GST-Vif 1-94, biotin-A3G peptide, dose response retest, primary screen (AID 1117319) | TR-FRET GST-Vif / biotin-A3G peptide binding; higher % means a stronger effect; test concentration not given here; strong numbers were not always called active | inhibition, %; hits with a dose series show IC50 in µM | 0.57% of 260,000 active;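 active = above the screen mean plus three standard deviations and confirmed in dose response; inconclusive = results disagree or hit not tested in dose response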;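 also: Vif residues 1-94 fused to GST binding biotinylated APOBEC3G peptide 110-148; 0% = full assay without inhibitor and 100% = GST in place of GST-Vif; retest series ran down from 100 µM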
Calb FLC: C. albicans growth modulation with fluconazole; C. albicans CaCi-2 (fluconazole-resistant clinical isolate) + fluconazole, Alamar Blue growth, 48 h; growth inhibition, % (no concentration beside the values); 0.57% of 300,000 active;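 active = most replicates above 75%; inconclusive = exactly half above 75%; inactive = most below 75%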;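 also: all wells also contain fluconazole at 8 µg/ml as a sub-toxic cotreatment; 0% = median of DMSO wells and 100% = median of geldanamycin control wells; wells of about 8 µL received 7.5 nL stock; the first replicate is given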
B2AR ag: agonists of human beta-2 adrenergic receptor inducing internalization | P07550 | Am2.2-beta2AR cells, FAP receptor internalization, flow cytometry; reference of the scale not given here | response, % (test concentration not listed) | 0.43% of 340,000 active;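 active = response above a set limit, near 3 SD of response in nonfluorescent compounds, cut at about 42% in these data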;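 also: stock transfer was 100 nL into about 11 µL; a reference agonist was the positive control; negative values mostly stem from fluorescent compounds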
Target sequence (P07550 whole entry, looked up): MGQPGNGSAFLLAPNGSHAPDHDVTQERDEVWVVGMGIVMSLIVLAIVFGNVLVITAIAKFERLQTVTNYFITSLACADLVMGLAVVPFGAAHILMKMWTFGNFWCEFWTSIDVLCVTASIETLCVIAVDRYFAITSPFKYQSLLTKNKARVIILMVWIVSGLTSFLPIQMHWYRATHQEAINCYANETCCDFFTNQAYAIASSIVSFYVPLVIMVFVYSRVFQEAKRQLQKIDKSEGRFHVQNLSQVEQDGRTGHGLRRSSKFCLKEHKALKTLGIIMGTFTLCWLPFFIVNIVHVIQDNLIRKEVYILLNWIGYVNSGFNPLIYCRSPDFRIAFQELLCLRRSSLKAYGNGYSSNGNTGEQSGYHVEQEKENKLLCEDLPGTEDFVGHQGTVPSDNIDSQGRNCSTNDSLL
ALR H2O2 inh: blocks human ALR sulfhydryl oxidase activity. purified ALR, DTT oxidation, H2O2 HRP-luminol luminescence. P55789. AID 485317. inhibition, % (concentration not given with the values). 3.8% of 290,000 active;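 active = mean and each replicate at 75% or more; inconclusive = only one of the two met; inactive = neither met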;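 also: stock transfer was 7.5 nL into about 7.5 µL; 0% = neutral wells and 100% = wells with inactivated enzyme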
Target sequence (P55789 whole entry, looked up): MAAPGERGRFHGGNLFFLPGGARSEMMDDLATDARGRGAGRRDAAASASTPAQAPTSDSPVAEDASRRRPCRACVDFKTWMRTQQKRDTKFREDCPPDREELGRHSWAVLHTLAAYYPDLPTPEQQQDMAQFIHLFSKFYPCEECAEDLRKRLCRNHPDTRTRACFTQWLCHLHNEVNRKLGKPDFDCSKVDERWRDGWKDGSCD
HNF4A DNA FP: change in binding of human HNF4 alpha to DNA. 0.3% of 360,000 active. HNF4a-FITC DNA binding, fluorescence polarization, 1 h. activity change, % at 10 µM; in the data active = activity change above about 30%, passing the limit was not always enough;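 also: controls were the assay level and a saturating level of protein; the project sought stronger binding though the title names inhibitors; some compounds called inactive have numbers as strong as hits; positive values seem to mean higher polarization but the record does not say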
Target sequence (P41235 whole entry, looked up): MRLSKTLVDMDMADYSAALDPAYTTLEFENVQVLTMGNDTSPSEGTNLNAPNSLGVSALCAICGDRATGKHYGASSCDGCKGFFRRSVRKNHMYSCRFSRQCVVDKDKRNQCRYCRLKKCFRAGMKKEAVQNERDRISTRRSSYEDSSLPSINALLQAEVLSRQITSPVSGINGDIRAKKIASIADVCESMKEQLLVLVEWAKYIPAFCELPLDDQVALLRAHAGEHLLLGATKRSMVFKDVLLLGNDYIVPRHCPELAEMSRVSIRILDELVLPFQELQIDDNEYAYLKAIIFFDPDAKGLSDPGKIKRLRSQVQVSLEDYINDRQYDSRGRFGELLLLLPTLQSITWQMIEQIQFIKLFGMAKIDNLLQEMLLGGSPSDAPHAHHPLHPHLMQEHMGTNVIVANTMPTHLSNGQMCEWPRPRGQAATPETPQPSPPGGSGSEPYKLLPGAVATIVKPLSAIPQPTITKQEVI
LANA-H2B inh: blocks KSHV LANA binding to histone H2A/H2B | cell-free LANA-H2A/H2B peptide, fluorescence polarization | AID 2629 | inhibition, % (test concentration not listed) | 0.6% of 320,000 active | Q9QR71; in the data active = inhibition mostly above about 10%, no sharp cut-off; inactive = mostly below about 6.7%;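 also: stock transfer was 7.5 nL into about 10 µL; 0% = median of vehicle wells and 100% = median of positive control wells; one replicate is shown; the record names a cut of 25% in any replicate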
RanGTP-Imp inh: inhibitors of RanGTP-importin-beta interaction, primary screen, biochemical, FRET, CFP-Ran, YFP-importin-beta, homogeneous; cell-free CFP-Ran/YFP-importin-beta FRET ratio; inhibition, % (test concentration not listed); 1.1% of 300,000 active;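 active = most replicates above 15%; inconclusive = exactly half above 15%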;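 also: 0% = DMSO wells and 100% = Ran loaded with GDP instead of GTP; wells of about 40 µL received 100 nL stock; the first replicate is given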
* hit, by the source's call; ? = inconclusive; / = not tested or not shown; & = joins results of further samples.

SMILES	Vif TR-FRET	Calb FLC	B2AR ag	ALR H2O2 inh	HNF4A DNA FP	LANA-H2B inh	RanGTP-Imp inh
CCOC(=O)c1c(N)sc2c(OCC)c(Br)ccc12	/	29	-17	-16	0.3	1.7	6.3
CC(=O)N1CCN(C(=O)c2ccc(-n3c(C)ccc3C)cc2)CC1	15%	-6	6	-3	-0.2	-4.3	2.9
O=C(O)CC(NC(=O)C(c1ccccc1)c1ccccc1)c1ccco1 (stereo not given)	24%	3	29	0	2.8	-2.3	2.6
COc1ccc(C)cc1NC(=O)C1CCN(C(=O)Cc2ccccc2)CC1	/	-3	-3	9	0.4	0.4	2.7
COc1cc(N2CCCC2)c(OC)cc1/C=C1/NC(=S)NC1=O	/	-9	-144	1	152	-7.1	-6.6
Cc1ccc(C(=O)OCC(=O)Nc2ccc(N3CCOCC3)cc2)cc1	2%	/	1	/	-1.0	/	/
COc1ccccc1-n1c(CNC(=O)c2cccc([N+](=O)[O-])c2C)n[nH]c1=S	-4%	-3	-6	46	-12	0.0	0.7
CCNC(=S)Nc1ccc2ncoc2c1	5%	-5	7	0	-0.4	31*	?
COc1ccccc1CNC(=O)C(=O)c1cn(CC(=O)N2CCOCC2)c2ccccc12	4%	-22	0	-7	1.4	-9.9	0.0
CCC(C)NCCCOc1cc(Cl)ccc1Cl (stereo not given)	-1%	-6	-2	-11	2.2	-0.7	8.1
COc1ccc(C)cc1S(=O)(=O)n1ccnc1C	33%	16	2	-10	2.0	-3.0	4.9
Cn1c(NCc2c(O)ccc3ccccc23)nc2ccccc21	11%	1	-5	18	0.6	1.8	-26
CC(=O)c1cccc(NC(=O)c2c(-c3c(F)cccc3Cl)noc2C)c1	-2%	/	0	-23	1.7	-1.8	/
O=C(Cc1c(F)cccc1Cl)c1ccc(O)cc1O	?	28	5	8	-18	5.7	0.3
CCN(C(=O)/C=C/c1ccccc1)C1CCCCC1	/	-8	-15	/	-3.8	1.8	0.3
CCN1C(=O)[C@H]2[C@@H](c3ccc(-c4ccc(Cl)c(Cl)c4)c(OC)c3)N3CCCC[C@@]3(C(=O)OC)[C@H]2C1=O	/	/	6	8	2.0	-0.3	/
N/C(=N\OC(=O)Cc1ccc(Cl)cc1)c1ccncc1	8%	-3	-4	/	-3.2	-2.4	-0.2
COc1cccc(CNc2cccc3cccnc23)c1O	22%	-19	-15	-13	1.8	-0.2	1.6
Cc1ccc2nsnc2c1S(=O)(=O)N1CCOCC1	-2%	7	2	98*	0.5	-1.4	0.1
CC=Cc1cc2c(c(=O)o1)C(=O)C(O)C(C)O2 (stereo not given)	-7%	/	2	/	0.2	/	/
COc1ccc(-c2oc3ccc(N4CCOCC4)cc3c2C#CCO)cc1	/	30	27	-5	0.8	-1.7	0.2
CC1CCCCC1NC(=O)c1ccc(NC2=NC3CS(=O)(=O)CC3S2)cc1 (stereo not given)	/	1	1	0	-0.5	1.0	0.9
COc1ccc(CCNC(=S)Nc2ccccc2C)cc1	-4%	-13	-1	6	0.7	3.9	-2.7
COc1ccc(NC(=O)Cn2c(=O)oc3cc(S(=O)(=O)N4CCCC4)ccc32)cc1	/	-4	3	-4	0.7	-1.4	2.0
CCCCCCCNC(=O)C1(CC2CC(c3cccc(Br)c3)=NO2)CCNCC1 (stereo not given)	/	54	27	-2	2.0	0.4	7.2
COc1ccc(S(=O)(=O)N2CN3CCN(C3)C2)cc1	/	0	-4	-16	-2.3	-1.2	-2.0
Cc1nn(CC(=O)N2c3ccccc3NC(=O)C2(C)C)c(C)c1[N+](=O)[O-]	4%	-7	7	-4	-4.3	-11	2.9
O=C(Nc1cnc2ccccc2c1)c1ccncc1	-5%	2	3	-13	-0.9	-3.1	3.0
C=C(C)c1cccc(C(C)(C)NC(=O)N2CC(C)OC(C)C2)c1 (stereo not given)	8%	-3	4	-9	-3.4	1.5	-2.7
CCN(CC)S(=O)(=O)c1ccc(OC)c(NC(=O)c2cc3c(=O)n4ccccc4nc3s2)c1	/	5	5	-3	-0.5	0.3	2.1
COC(=O)c1cc(S(=O)(=O)NCc2ccccc2)cn1C	/	0	2	/	0.5	/	-1.4
Cc1ccc(C(=O)NCCC(=O)Nc2ccccc2C)cc1	/	1	1	-8	2.3	-2.6	1.5
CCOC(=O)/C(C#N)=N/Nc1c(S(=O)(=O)Cc2ccco2)csc1C(=O)OC	4%	-16	-2	8	-0.2	-2.7	0.0
CCN(CC)S(=O)(=O)c1ccc(-c2cc(C(=O)OC)sc2C(F)(F)F)cc1	0%	18	7	-13	-0.7	-1.7	-4.0
Cc1ccc(-c2cn(CCN)c(-c3ccc(Cl)nc3)n2)cc1	/	/	-8	20	-9.1	8.1	/
COc1ccc(Cn2nnnc2C(c2cc3cc(C)cc(C)c3[nH]c2=O)N2CCOCC2)cc1 (stereo not given)	1%&3%	-13	1	/	3.6	/	2.2
Cc1cccnc1NC(=O)c1ccc([N+](=O)[O-])o1	/	-4	2	-21	0.7	8.4	-0.9
COc1cc(N=Cc2c(O)c3ccccc3oc2=O)c(OC)cc1Cl	/	15	6	-4	98*	-11	4.7
COC(=O)C1(C(=O)OC)NOC2C(=O)N(c3ccc(Cl)cc3Cl)C(=O)C21 (stereo not given)	0%	-3	8	0	3.1	-0.8	-0.4
O=C(NCC1CCCO1)C(c1ccccn1)N(Cc1ccccc1Cl)C(=O)CN1C(=O)c2ccccc2S1(=O)=O (stereo not given)	/	0	-6	-4	1.6	-2.4	3.1
COc1ccc(/C=C(\NC(=O)c2ccccc2)C(=O)NC2CCS(=O)(=O)C2)cc1 (stereo not given)	1%	-9	6	-4	4.3	1.4	?
COc1ccc(NC(=O)Cc2c(O)c3ccccc3[nH]c2=O)cc1	5%	-3	-1	3	-2.9	-3.1	0.7
O=C(Nc1ccc(F)c(Cl)c1)c1ccc2c(=O)n3c(nc2c1)CCCCC3	-2%	-5	2	-5	1.2	0.4	?
N#CC1(C#N)[C@@H](C(=O)C23CC4CC(CC(C4)C2)C3)C12CCOCC2	29%	-20	-2	-21	2.4	1.3	-2.3
Cc1cccc(NC(=O)CCN2C(=O)c3ccccc3S2(=O)=O)c1C	/	5	-1	-9	-2.0	-0.7	?

3 compounds already listed, ordered by heavy-atom count, ascending:
SMILES	Vif TR-FRET	Calb FLC	B2AR ag	ALR H2O2 inh	HNF4A DNA FP	LANA-H2B inh	RanGTP-Imp inh
Cc1ccc(-c2cn(CCN)c(-c3ccc(Cl)nc3)n2)cc1	/	/	-8	20	-9.1	8.1	/
COc1ccc(NC(=O)Cc2c(O)c3ccccc3[nH]c2=O)cc1	5%	-3	-1	3	-2.9	-3.1	0.7
O=C(Nc1ccc(F)c(Cl)c1)c1ccc2c(=O)n3c(nc2c1)CCCCC3	-2%	-5	2	-5	1.2	0.4	?

Carrying on.
SMILES	Vif TR-FRET	Calb FLC	B2AR ag	ALR H2O2 inh	HNF4A DNA FP	LANA-H2B inh	RanGTP-Imp inh
Cc1ccc(-n2c(=O)c3c4c(sc3n3c(C)nnc23)COC(C(C)C)C4)cc1 (stereo not given)	/	-14	-2	-24	2.4	-2.0	-3.8
CCOC(=O)N1CCC(n2c(=S)[nH]c3ccccc3c2=O)CC1	1%	24	-13	-3	-0.4	-0.5	-2.6
O=C(N/N=C/c1cccnc1)/C(=C\c1cccs1)NC(=O)c1ccccc1	16%	0	1	-12	1.6	1.2	0.8
CCCOc1ccccc1C1CC(=O)Nc2cc3c(cc21)OCO3 (stereo not given)	8%	9	16	/	1.8	-0.6	5.0
Cc1nnc(SCC(=O)Nc2ccc(OC(F)F)c(Cl)c2)n(N)c1=O	/	/	10	99*	-0.4	3.4	/
COc1c(C(=O)Nc2nccs2)ccc2ccccc12	-7%	4	1	54	-0.3	1.1	-3.2
O=c1[nH]c(=O)n(C2CCCO2)cc1F (stereo not given)	30%	/	3	-29	1.3	3.0	-2.5
CCN1CCN(c2ccc(NC(=O)c3ccccc3F)cc2Cl)CC1	/	1	-9	15	-3.5	-0.2	0.2
CCCNC(=O)c1nn2c(C(F)(F)F)cc(-c3ccccc3)nc2c1Br	/	1	0	-3	3.1	-3.6	-2.9
O=C(Nc1ccc(S(=O)(=O)Nc2cnc3ccccc3n2)cc1)c1ccc(F)cc1	/	2	8	-7	-0.2	-3.8	0.3
Cc1c([N+](=O)[O-])cnc(Sc2ccccc2)c1[N+](=O)[O-]	/	2	11	99*	4.3	4.7	4.7
Cc1cc(C)c2c(N)c(C(=O)NN3CC(=O)N(c4cccc(Cl)c4)CC3=O)sc2n1	-23%	-2	-6	2	1.3	-1.1	?
CCCC(=O)NC(c1ccc(OC)c(OC)c1)c1cc(Cl)c2cccnc2c1O (stereo not given)	3%	13	3	-5	-3.2	-1.5	-4.0
Cc1ccc(/C=C/C(=O)N2CCc3ccccc3C2)cc1	0%	?	-6	-7	-0.4	-3.2	1.7
O=C(NCc1ccco1)C(NS(=O)(=O)c1cccc2nsnc12)c1ccccc1 (stereo not given)	13%	-7	4	-24	0.7	-0.5	-2.7
O=C(NCCCNC(=O)c1ccco1)c1cccc(F)c1	/	-3	0	-18	-3.4	1.2	-0.7
C/C=C/C=C/C(=O)OC(C)C(=O)Nc1cc([N+](=O)[O-])ccc1OC (stereo not given)	13%	15	-4	-14	7.6	5.2	?
O=C(NCCN1CCOCC1)c1ccc2c(c1)ncn2C1CCCCC1	-3%	-2	-7	/	-0.7	-0.8	3.6
COc1ccccc1N1CCN(C(=O)Nc2ccc(F)c(Cl)c2)CC1	2%	1	9	18	1.4	6.7	0.6
CC[C@]12c3[nH]c4ccc(OC)cc4c3CCN1C(=O)C(CC(=O)NCCN1CCOCC1)C[C@@H]2C(=O)N1CCN(C(=O)C2CC2)CC1 (stereo not given in full)	-4%	/	4	/	0.3	/	/
S=C(Nc1ccccc1Cl)NC1CCC(NC(=S)Nc2ccccc2Cl)CC1 (stereo not given)	-18%	0	-1	-41	4.3	3.5	-1.0
CC(C)(C)C(=O)Nc1cc2c3c(c1)CCC(=O)N3CCC2	/	-7	-2	-13	-0.8	3.7	0.4
Nn1c(Cc2cccc3ccccc23)n[nH]c1=S	8%	-4	-3	64	4.6	-0.6	/
Cc1ccsc1CN(C)C(=O)c1cc(S(=O)(=O)N2CCOCC2)ccc1N1CCCC1	-3%	/	-5	-2	-0.2	4.3	/
COc1ccc(NC(=O)COC(=O)c2ccc(NS(=O)(=O)/C=C/c3ccccc3)cc2)cc1	9%	-15	-1	/	2.3	/	0.1
CCOc1cc(N2CCOCC2)c(OCC)cc1NC(=O)CN1CCCC1	/	9	10	/	0.8	-2.9	3.5
O=C(COc1c(Br)cc(Br)c2cccnc12)N1CCc2ccccc2C1	-4%	38	-5	-8	0.8	7.9	1.9
Cc1ccc(OCC(=O)N2CCCCC2)c(Br)c1	4%	-15	5	-21	0.2	2.1	-2.8
CCN(C(=O)COC(=O)c1cc(-c2ccccc2)nc2c1c(C)nn2-c1ccccc1)C1CCS(=O)(=O)C1 (stereo not given)	/	1	1	/	0.8	-8.1	0.2
CC(Oc1ncnc2ccccc12)C(=O)Nc1cccc(S(=O)(=O)N2CCOCC2)c1 (stereo not given)	/	2	-6	-13	-2.8	-6.0	-6.6
Cc1ccc2c(Cl)cc(Cl)c(OCC(=O)O)c2n1	-4%	-21	-1	3	5.2	0.6	-2.1
O=C(CC1C[C@H](C(=O)N2CCOCC2)[C@@]2(CCC3CCCC3)c3[nH]c4ccccc4c3CCN2C1=O)NCC12CC3CC(CC(C3)C1)C2 (stereo not given in full)	-2%	/	2	/	-3.3	-0.9	/
Cc1cc(C(=O)Nc2ccc(OCc3ccccc3)cc2)c(C)o1	/	-3	11	-1	-7.0	-5.7	4.3
CCCN(CC(=O)Nc1ccccc1C)C(=O)CCN1C(=O)c2cccc([N+](=O)[O-])c2C1=O	-4%	-5	6	-14	-3.9	-5.2	-3.5
CC(=O)N1CCN(c2nc(CC(C)C)c3c(c2C#N)CCC3)CC1	-1%	15	1	-7	-2.1	0.1	-1.8

Assay outcomes from PubChem BioAssay.
